From PubChem BioAssay
DUX4 txn inh = inhibitors of DUX4-driven ZSCAN4 reporter expression, primary screen, 293T cells, Gaussia and Italica luciferase | 293T-iDUX4 ZSCAN4-Gaussia luciferase reporter, 24 h; hits give low values | activity change, negative = inhibition, % (no concentration beside the values) | hit rate 0.8% among 37,000 | AID 1224904, 2016;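 active means -10% or lower and over 25 points stronger than a control reporter; inconclusive means -10% or lower with a smaller gap; inactive means above -10%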;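 further: 0% = median of neutral control wells and -100% = median of positive control wells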
DUX4 txn inh difference = recorded beside DUX4 txn inh, whose call it bears; Gaussia minus Italica difference, %; measured here: selective DUX4 reporter inhibition;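 worked out from the two reporters; negative = selective loss of the DUX4 reporter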
DUX4 txn inh control = further read-out of DUX4 txn inh, marked with its call; activity change, negative = inhibition, %; measured here: Italica tet-on control reporter;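 0 = neutral control and -100 = positive control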
* hit, by the source's call; u = inconclusive; x = no result given; & = joins results of further samples. This is a subset. The share of hits here may be higher or lower than overall.

DUX4 txn inh control | DUX4 txn inh difference | DUX4 txn inh | structure
-2.0 | -5 | -7 | C[C@@H]1CN([C@H](C)CO)C(=O)c2c(c3ccccc3n2C)-c2ccccc2CO[C@@H]1CN(C)C(=O)c1ccncc1
2.0 | -2 | 0 | CC(=O)N1C[C@H]2[C@@H](c3ccccc31)[C@H](CO)N2C(=O)c1ccc(F)cc1
0.8 | -1 | 0 | C[C@H](CO)N1C[C@H](C)[C@@H](CN(C)C)Oc2ccc(NS(C)(=O)=O)cc2C1=O
5.7 | -4 | 2 | CCS(=O)(=O)Nc1ccc2c(c1)C(=O)N(C)[C@H]1CC[C@@H](CC(=O)NC3CCCCC3)O[C@H]1CO2
5.4 | 5 | 10 | CN(C)C(=O)C[C@H]1C[C@H]2c3cc(NC(=O)NC4CCCC4)ccc3O[C@H]2[C@@H](CO)O1
4.8 | -2 | 2 | CO[C@@H](CN(C)CC1CCOCC1)[C@H](C)CN(C(=O)Nc1ccc(F)cc1)[C@H](C)CO
0.8 | 0 | 1 | COC(=O)C[C@H]1CC[C@@H]2[C@H](COc3ccc(NS(=O)(=O)c4ccccc4Cl)cc3C(=O)N2C)O1
1.6 | -3 | -2 | Cc1cccc(S(=O)(=O)N2C[C@H]3[C@@H](c4ccccc42)[C@@H](CO)N3Cc2ccccn2)c1
0.3 | -3 | -3 | C[C@@H]1CN([C@@H](C)CO)C(=O)c2cc(C#C[C@@H](C)O)cnc2O[C@@H]1CN(C)C(=O)CN1CCOCC1
-0.3 | 1 | 0 | C[C@@H]1CN([C@@H](C)CO)S(=O)(=O)c2ccc(-c3cccc(C#N)c3)cc2O[C@@H]1CN(C)C(=O)c1ccccc1
-7.7 | 8 | 0 | CC(=O)N1CCCCN2[C@H](CO)[C@H](c3ccc(-c4ccc(F)cc4)cc3)[C@H]2C1
-6.2 | 3 | -4 | N#C[C@H]1[C@@H](c2ccccc2-c2ccccc2F)[C@@H](CO)N1C(=O)C1CCC1
0.2 | -1 | 0 | C[C@H]1CN([C@@H](C)CO)C(=O)CCCn2nncc2CO[C@@H]1CN(C)S(=O)(=O)c1ccccc1F
-3.4 | 11 | 7 | CCCNC(=O)C[C@H]1CC[C@@H]2[C@H](COC[C@@H](O)CN2Cc2ccc(Cl)c(Cl)c2)O1
0.8 | -1 | 0 | O=C(N[C@@H]1CC[C@@H](CCNS(=O)(=O)c2ccc(F)cc2)O[C@H]1CO)C1CCC1
6.4 | -4 | 2 | COc1ccc2c3c(n(C)c2c1)[C@H](CO)N(Cc1cccnc1)CC31CN(Cc2cccnc2)C1
x | x | u | COc1ccc2c3c([nH]c2c1)[C@@H](CO)N(Cc1ccccc1OC)CC31CCN(C(C)=O)CC1
x | x | u | Cc1ccccc1-c1ccccc1[C@H]1[C@@H](C#N)N(C(=O)c2cccc(F)c2)[C@H]1CO
2.6 | -3 | -1 | Cc1noc(C)c1S(=O)(=O)Nc1ccc2c(c1)CC(=O)N([C@@H](C)CO)C[C@@H](C)[C@@H](CN(C)Cc1ccc(Oc3ccccc3)cc1)O2
7.7 | -6 | 2 | CCCNC(=O)N1CC[C@H]2[C@@H]1c1cc(C#Cc3ccccc3)ccc1N(C)[C@H]2CO
-2.3 | 2 | 0 | COc1ccccc1NC(=O)N1C[C@H]2[C@@H](c3ccccc31)[C@@H](CO)N2C(=O)C1CCCC1
4.8 | 3 | 7 | COCC#Cc1ccc([C@@H]2[C@@H](CO)N3C(=O)CN(C(=O)Nc4cc(F)ccc4F)C[C@H]23)cc1
7.0&2.3 | -4&0 | 3&2 | NCC[C@@H]1CC[C@@H](NS(=O)(=O)c2ccc(Cl)cc2)[C@@H](CO)O1
3.8 | -7 | -4 | CCCC(=O)Nc1ccc2c(c1)C(=O)N(C)C[C@H](OC)[C@H](C)CN(C(=O)CC1CC1)[C@H](C)CO2
3.6 | -1 | 3 | O=C(c1cnccn1)N1CC(=O)N2[C@H](CO)[C@H](c3ccc(C4=CCCCC4)cc3)[C@@H]2C1
2.4 | 1 | 3 | C[C@H]1CN([C@@H](C)CO)S(=O)(=O)c2ccc(-c3ccncc3)cc2O[C@H]1CN(C)C(=O)Nc1ccc(F)cc1
6.9 | 15 | 22 | COc1ccc2c3c(n(C)c2c1)[C@H](CO)N(C(=O)NC(C)C)CC31CCN(C(C)=O)CC1
-0.3 | 0 | 0 | CO[C@H](CN(C)S(=O)(=O)c1ccccc1)[C@@H](C)CN(C(=O)Nc1ccccc1F)[C@H](C)CO
-4.9 | 4 | -1 | C[C@@H]1CN([C@H](C)CO)C(=O)Cc2cc(NC(=O)Cn3cnnn3)ccc2O[C@@H]1CN(C)S(=O)(=O)c1ccc(Cl)cc1
-0.6 | -3 | -4 | COCC(=O)N1C[C@H]2[C@@H](c3ccccc31)[C@H](CO)N2C(=O)c1ccccc1F
0.0 | 0 | 0 | CNC[C@H]1OCCCC[C@@H](C)Oc2ccc(NC(=O)CCC(F)(F)F)cc2C(=O)N([C@H](C)CO)C[C@H]1C
9.4 | -6 | 3 | C[C@@H]1CN([C@H](C)CO)C(=O)CCCn2nncc2CO[C@H]1CN(C)C(=O)Nc1ccc2c(c1)OCCO2
x | x | u | O=C(C[C@H]1C[C@H]2c3cc(NC(=O)c4ccc5c(c4)OCO5)ccc3O[C@H]2[C@H](CO)O1)NCc1ccccn1
-0.2 | 2 | 2 | O=C(Cc1ccccc1)N1CC2(C1)[C@@H](c1ccccc1)[C@H](CO)N2C(=O)Cc1ccccc1
-3.1 | 3 | 0 | CN1CCN(C(=O)c2cc3c(c(-c4cccc(Br)c4)n2)[C@@H](CCO)N([S@](=O)C(C)(C)C)C3)CC1
1.5 | -3 | -1 | COc1ccc(CN(C)C[C@H]2OCc3cn(nn3)CCCC(=O)N([C@@H](C)CO)C[C@H]2C)cc1
5.7 | 1 | 7 | COC(=O)C[C@@H]1CC[C@@H]2[C@H](COC[C@H](O)CN2S(=O)(=O)c2ccccc2OC)O1
5.7 | -12 | -6 | O=C(C[C@@H]1C[C@@H]2c3cc(NC(=O)Nc4ccc(C(F)(F)F)cc4)ccc3O[C@@H]2[C@H](CO)O1)NCCc1ccccc1
3.1 | 2 | 5 | CC(C)NC(=O)N[C@@H]1C=C[C@@H](CC(=O)O)O[C@H]1CO
-1.1 | 2 | 1 | Cc1noc(C)c1NC(=O)N(C)C[C@H]1Oc2c(NC(=O)c3nc4ccccc4s3)cccc2C(=O)N([C@@H](C)CO)C[C@H]1C
-0.7 | -6 | -6 | O=C(c1ccccc1)N1C[C@@H]2[C@H](c3ccccc31)[C@H](CO)N2S(=O)(=O)c1ccccc1
1.4 | 0 | 2 | Cc1noc(C)c1NC(=O)Nc1ccc2c(c1)C(=O)N(C)[C@@H]1CC[C@@H](CC(=O)N[C@H]3CCN(Cc4ccccc4)C3)O[C@@H]1CO2
16 | 5 | 21 | COCC#Cc1ccc([C@H]2[C@H](CO)N3C(=O)CN(C(=O)c4ccncc4)C[C@@H]23)cc1
-4.2 | -5 | -9 | CC=Cc1ccc2n(c1=O)C[C@H]1[C@H](CO)[C@@H](C(=O)N3CCC(Cc4ccccc4)CC3)N(CC)[C@@H]21 (mixture of isomers)
7.7 | -7 | 1 | COc1ccc(NC(=O)N2C[C@@H](O)COC[C@@H]3O[C@@H](CC(=O)N4CCOCC4)CC[C@H]32)cc1
0.3 | -9 | -9 | COc1ccccc1CN1CC[C@@H]2[C@H]1c1cc(C#Cc3ccccc3)ccc1N[C@@H]2CO
3.0 | -4 | -1 | C[C@@H]1CN([C@@H](C)CO)C(=O)CCCn2nncc2CO[C@@H]1CN(C)C(=O)Nc1ccc(F)cc1
-1.7 | 1 | 0 | COc1ccc2c3c([nH]c2c1)[C@@H](CO)N(C(=O)c1ccncc1)CC31CN(Cc2cccnc2)C1
-2.8 | 2 | -1 | CC(C)(C)[S@@](=O)N1Cc2cc(C(=O)N[C@H]3CCN(Cc4ccccc4)C3)nc(-c3cccc(-c4ccncc4)c3)c2[C@H]1CCO
11 | 0 | 11 | N#C[C@H]1[C@@H](c2ccccc2C2=CCCC2)[C@H](CO)N1C(=O)c1ccccn1
x | x | u | Cc1ccc(-c2ccc([C@@H]3[C@@H](CO)N4CCCCN(S(=O)(=O)c5ccccc5C)C[C@@H]34)cc2)cc1
-0.5 | -4 | -5 | CS(=O)(=O)N1[C@@H]2c3ccc(-c4cccc(F)c4)c(=O)n3C[C@@H]2[C@@H](CO)[C@@H]1C(=O)NC1CCC1
14 | -4 | 10 | COCC(=O)N1CC2(CCN(C(=O)CN3CCOCC3)CC2)c2c([nH]c3cc(OC)ccc23)[C@H]1CO
-0.6 | -3 | -3 | CC[C@H]1C/C=C\C[C@H](c2ccc(OC)cc2OC)NC(=O)[C@H](C)CC(=O)N1
3.6 | -1 | 3 | CC(=O)NC[C@@H]1[C@H](c2ccc(-c3ccccc3F)cc2)[C@@H](CO)N1C(=O)C1CC1
2.4 | 1 | 3 | C[C@@H]1CN([C@H](C)CO)C(=O)c2c(c3ccccc3n2C)-c2ccccc2CO[C@@H]1CN(C)C(=O)[C@@H]1CCCN1C
11 | 7 | 17 | COc1ccc2c3c(n(C)c2c1)[C@@H](CO)N(C)CC31CN(C(=O)C2CCC2)C1
-0.5 | 0 | -1 | COCC#Cc1ccc2c(c1)O[C@H](CN(C)C(=O)c1ccccc1)[C@@H](C)CN([C@H](C)CO)S2(=O)=O
-0.7 | 4 | 3 | C[C@H]1CN([C@@H](C)CO)C(=O)Cc2cc(NC(=O)CCCCCC(=O)Nc3ccccc3N)ccc2O[C@H]1CN(C)Cc1ccc(C(F)(F)F)cc1
14 | -9 | 5 | COc1ccccc1-c1ccccc1[C@@H]1[C@H](C#N)N(C(=O)C2CCC2)[C@H]1CO

(more compounds)
DUX4 txn inh control | DUX4 txn inh difference | DUX4 txn inh | structure
-0.4 | 2 | 2 | O=C(Nc1cccc(Cl)c1)N1C[C@H]2[C@@H](c3ccccc31)[C@H](CO)N2C(=O)C1CCCC1
-1.0 | 0 | -1 | CN(C)C(=O)[C@H]1[C@H](CO)[C@H]2Cn3c(ccc(C4=CCCC4)c3=O)[C@@H]1N2C(=O)Nc1ccccc1
-1.4 | -1 | -3 | CCCC(=O)Nc1ccc2c(c1)C(=O)N(C)[C@@H]1CC[C@H](CC(=O)NCCc3ccncc3)O[C@H]1CO2
-4.4 | 10 | 6 | O=C(NC1Cc2ccccc2C1)[C@H]1[C@H](CO)[C@H]2Cn3c(cccc3=O)[C@H]2N1C(=O)c1cnccn1
x | x | u | COc1cccc(C#Cc2ccc([C@H]3[C@H]4CN(S(=O)(=O)c5ccccc5C)CC(=O)N4[C@H]3CO)cc2)c1
26 | -4 | 22 | COc1ccccc1-c1ccc([C@H]2[C@@H](CO)N3CCCCN(S(=O)(=O)c4cn(C)cn4)C[C@H]23)cc1
1.3 | 8 | 10 | C[C@@H]1CN([C@@H](C)CO)C(=O)c2ccccc2-c2ccccc2CO[C@@H]1CN(C)Cc1cccc2c1OCCCO2
2.9 | 2 | 5 | O=C(C[C@H]1C=C[C@H](NC(=O)Cc2ccccn2)[C@H](CO)O1)NCCc1ccncc1
9.6 | -12 | -2 | CS(=O)(=O)N1CC(=O)N2[C@H](CO)[C@@H](c3ccc(C#CCC4CCCC4)cc3)[C@H]2C1
x | x | u | C[C@@H]1CN([C@@H](C)CO)C(=O)c2c(c3ccccc3n2C)-c2ccccc2CO[C@H]1CN(C)C(=O)c1cc(Cl)cc(Cl)c1
4.5 | 24 | 29 | OC[C@@H]1[C@H](c2ccc(Br)cc2)[C@H]2CN(Cc3cncnc3)CCCCN12
0.0 | 7 | 7 | CCC(=O)N1[C@H](CO)[C@@H](c2ccccc2)C12CN(C(=O)NC1CCCC1)C2
1.1 | -1 | 0 | CO[C@H]1CN(C)C(=O)c2ccc(NC(=O)Nc3cc(F)ccc3F)cc2OC[C@H](C)N(C)C[C@@H]1C
1.0 | 1 | 2 | O=C(NC[C@@H]1[C@@H](c2ccccc2)[C@@H](CO)N1Cc1cccnc1)C1CCCCC1
-1.5 | 1 | 0 | COC(=O)C[C@@H]1CC[C@@H]2[C@@H](COc3ccc(NC(=O)c4ccc(F)c(F)c4)cc3C(=O)N2C)O1

As a short view, some entries already given:
DUX4 txn inh control | DUX4 txn inh difference | DUX4 txn inh | structure
-0.4 | 2 | 2 | O=C(Nc1cccc(Cl)c1)N1C[C@H]2[C@@H](c3ccccc31)[C@H](CO)N2C(=O)C1CCCC1
-1.0 | 0 | -1 | CN(C)C(=O)[C@H]1[C@H](CO)[C@H]2Cn3c(ccc(C4=CCCC4)c3=O)[C@@H]1N2C(=O)Nc1ccccc1
-1.4 | -1 | -3 | CCCC(=O)Nc1ccc2c(c1)C(=O)N(C)[C@@H]1CC[C@H](CC(=O)NCCc3ccncc3)O[C@H]1CO2
-4.4 | 10 | 6 | O=C(NC1Cc2ccccc2C1)[C@H]1[C@H](CO)[C@H]2Cn3c(cccc3=O)[C@H]2N1C(=O)c1cnccn1
x | x | u | COc1cccc(C#Cc2ccc([C@H]3[C@H]4CN(S(=O)(=O)c5ccccc5C)CC(=O)N4[C@H]3CO)cc2)c1
26 | -4 | 22 | COc1ccccc1-c1ccc([C@H]2[C@@H](CO)N3CCCCN(S(=O)(=O)c4cn(C)cn4)C[C@H]23)cc1
1.3 | 8 | 10 | C[C@@H]1CN([C@@H](C)CO)C(=O)c2ccccc2-c2ccccc2CO[C@@H]1CN(C)Cc1cccc2c1OCCCO2
2.9 | 2 | 5 | O=C(C[C@H]1C=C[C@H](NC(=O)Cc2ccccn2)[C@H](CO)O1)NCCc1ccncc1
9.6 | -12 | -2 | CS(=O)(=O)N1CC(=O)N2[C@H](CO)[C@@H](c3ccc(C#CCC4CCCC4)cc3)[C@H]2C1
x | x | u | C[C@@H]1CN([C@@H](C)CO)C(=O)c2c(c3ccccc3n2C)-c2ccccc2CO[C@H]1CN(C)C(=O)c1cc(Cl)cc(Cl)c1
